Source: PubChem (National Center for Advancing Translational Sciences (NCATS))
Cruzain Triton: qHTS Assay for Promiscuous and Specific Inhibitors of Cruzain (with detergent) | AID 1478, 2009 | Cruzipain (Trypanosoma cruzi), P25779 | 0.43% of 200,000 active | Potency, µM, without a hit: max response, negative = inhibition, usual class: inhibitors | purified cruzain, Z-FR-AMC fluorescence, 0.01% Triton;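 further: plate controls were neutral wells for no effect and buffer without enzyme for full effect; nearly all actives have a fitted effect of over 40% in size; top concentration of the series not given in the record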
Target sequence (P25779 123-467 limits assumed): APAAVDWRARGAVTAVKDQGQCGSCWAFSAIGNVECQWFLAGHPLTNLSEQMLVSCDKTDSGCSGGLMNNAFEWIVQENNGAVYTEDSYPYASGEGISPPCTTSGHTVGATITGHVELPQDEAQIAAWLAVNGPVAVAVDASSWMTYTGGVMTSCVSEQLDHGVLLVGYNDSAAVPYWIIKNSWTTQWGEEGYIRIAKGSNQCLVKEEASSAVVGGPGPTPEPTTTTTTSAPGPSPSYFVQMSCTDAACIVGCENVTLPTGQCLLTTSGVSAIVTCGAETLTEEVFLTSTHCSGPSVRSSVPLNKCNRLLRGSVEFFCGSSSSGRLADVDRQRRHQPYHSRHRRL
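Enzyme 1.5 nM, Z-FR-AMC 2 uM, NaOAc 100 mM pH 5.5, DTT 5 mM, Triton X-100 0.01%; 15 min RT compound preincubation; kinetic ex360/em450, 60 s delta.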
NS1 function inh: qHTS Assay for Inhibitors of Influenza NS1 Protein Function; S. cerevisiae slowed by influenza A NS1, growth recovery by OD600; Potency, µM (highest dose often 46.1 µM), inactives show at the top dose activity, positive = more growth; 0.4% of 270,000 active; active means well fitted rising curve with a large enough effect; inconclusive means small, poorly fitted or top-dose-only effect; inactive means no such curve, though single readings can be large or run the other way; further: nearly all actives have a fitted effect of over 50% in size
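Read-out: OD600 growth recovery of NS1-expressing budding yeast. Cells grown overnight at 30C in -URA glucose medium, washed, resuspended and diluted 1:100 in 2% galactose assay medium, pH 6.0. Same strain lacking NS1 served as positive control.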
SARS PLP yeast: qHTS of Yeast-based Assay for SARS-CoV PLP; S. cerevisiae expressing SARS-CoV PLpro, growth rescue; control for the full effect not named in the record; Potency, µM (top dose mostly 32.9 µM), inactives show top-dose activity, positive = growth rescue; 0.19% of 330,000 active; AID 485353, 2010; active means well fitted rising curve with a large enough effect; inconclusive means small, poorly fitted or top-dose-only effect; inactive means no such curve, though single readings can be large or run the other way; further: 0% is about no effect; nearly all actives have a fitted effect of over 55% in size; growth read by luminescence after 48 h
Cruzain noTriton: qHTS Assay for Promiscuous and Specific Inhibitors of Cruzain (without detergent) | Potency, µM, for the others: max response, negative = inhibition, actives largely listed as inhibitors | purified cruzain, Z-FR-AMC fluorescence, no detergent | 2.3% of 200,000 active | AID 1476, 2009 | Cruzipain (Trypanosoma cruzi), P25779;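 further: plate controls were enzyme without inhibitor for no effect and buffer without enzyme for full effect; nearly all actives have a fitted effect of over 40% in size; top concentration of the series not given in the record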
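Purified cruzain at 1.5 nM, pre-incubated 15 min with compound at room temperature in 100 mM sodium acetate pH 5.5, 5 mM DTT, 0.00005% Triton X-100. Reaction started with 2 uM Z-FR-AMC; AMC fluorescence increase over 60 s gives rate.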
* hit, by the source's call; ? = inconclusive; nt = not tested or not shown; & = joins results of further samples. Unless noted, the call rests on the fitted dose curve; in most records, active means well fitted curve in the direction sought with a large enough effect; inconclusive means small, poorly fitted or top-dose-only effect, or another doubt; inactive means no such curve, though single readings can be large; an effect the other way counts as inactive or inconclusive. Potency means the concentration at half of the fitted maximal effect. A portion of the library; the hit share may differ from the screen's.

SMILES | SARS PLP yeast | Cruzain Triton | Cruzain noTriton | NS1 function inh
N#C/C(=C\NC(=S)c1ccncc1)c1nc2ccccc2s1 | nt | -0.3% | -26% | 0%
O=C(O)c1cc[c]([Hg][S]c2ncnc3nc[nH]c23)cc1 | nt | -1.3% | 18% | -15%
O=C1C(=O)c2ccccc2C(O)=C1Cc1ccccc1 | nt | 5.0% | -3% | -30%
COc1c2c(c3c(c1CCC(=O)O)OC(C)(C)C=C3)OC(C)(C)C=C2 | nt | -0.6% | 2% | 11%
C[N+](C)(N)Cc1csc(-c2ccc(Cl)cc2)n1 | nt | 0.7% | 6% | -4%
O=C(NCP(=O)(O)O)c1cccnc1 | nt | 3.2% | 13% | -7%
CN=C(N)/N=C(\N)Nc1cc2ccccc2c2ccccc12 | nt | 6.7% | 1% | 3%
C[C@@H]1[C@@H](C)N1C[C@H](O)Cn1ccnc1[N+](=O)[O-] (some centres not stated) | nt | -1.1% | -1% | 3%
O=C1C2=C(Nc3cc([N+](=O)[O-])ccc3N2)O[C@@H]1c1ccc([C@H]2OC3=C(Nc4ccc([N+](=O)[O-])cc4N3)C2=O)cc1 | nt | -3.2% | -4% | 8%
CC(=O)/C(=C\c1ccccc1F)C(=O)c1ccccc1 | nt | -2.4% | ? | -4%
O=C(O)Cc1c[nH]c2ccc(F)cc12 | nt | 1.8% | 2% | -4%
Clc1ccc(CSc2ncnc3c2ncn3[C@@H]2CCCCO2)cc1 | nt | -2.8% | -6% | -6%
Cc1[nH]c2ccccc2c1-c1cc(-c2cc(-c3c(C)[nH]c4ccccc34)nc(N)n2)nc(N)n1 | nt | -9.2% | 4% | -3%
O=S1(=O)OC(c2ccc(O)cc2)(c2ccc(O)cc2)c2ccccc21 | nt | -1.0% | -6% | -8%
C[C@@]12CC[C@H]3[C@H](CCC4=CC(=O)CC[C@H]43)[C@H]1CC[C@H]2OC1(O)C(=O)c2ccccc2C1=O | nt | -5.0% | 1% | -3%
CN(C)Cc1ccc(O)c(CN(C)C)n1 | nt | 2.5% | 6% | -4%
CC(C)=C[C@H]1[C@@H](COC(=O)c2cc3c(cc2Cl)OCO3)C1(C)C | nt | 6.3% | 3% | 6%
O=C(Oc1ccc(S(=O)(=O)F)cc1F)c1ccccc1Cl | nt | -0.3% | 8% | -16%
C[N+](C)(N)Cc1nc(-c2ccc(Cl)cc2)no1 | nt | 0.0% | -4% | -3%
CC(C)/C(=N/[N+](C)(C)C)c1ccccc1 | nt | 5.3% | 9% | 0%
O=C1c2ccccc2C(=O)N1CCCSc1ccccc1 | nt | -0.8% | -2% | -17%
O=C(O)C[C@H](Cc1ccc2c(c1)OCO2)C(=O)O | nt | 2.4% | -1% | 3%
CC(C)(CN)SCc1ccccc1 | nt | -5.8% | -1% | 8%
CCOC(=O)Cc1nc2ccccc2o1 | 0% | nt | nt | nt
O=C(Nc1nc2ccc([N+](=O)[O-])cc2s1)c1ccco1 | 2% | nt | nt | nt
O=C(O)c1ccc2c(c1)C(=O)N([C@]1(C(=O)O)CC1c1ccccc1)C2=O (some centres not stated) | -13% | nt | nt | nt
Brc1ccc(-c2csc(N3CCCCC3)n2)cc1 | -12% | nt | nt | nt
Cc1cc(NC(=O)Cn2c(=O)n(CCCCC(=O)NC3CCN(Cc4ccccc4)CC3)c(=O)c3ccccc32)n[nH]1 | 2% | nt | nt | nt
CCCCOc1ccc(C(=O)NCCc2cccs2)cc1 | -6% | nt | nt | nt
CCCCN(C(=O)c1cccc(-n2cccc2)c1)c1c(N)n(Cc2ccccc2)c(=O)[nH]c1=O | -4% | nt | nt | nt
CCOCCCNC(=S)NCCCNc1nc2ccc(C)cc2cc1C#N | 0% | nt | nt | nt
COC(=O)Nc1nc2ccc(C(=O)c3ccc(F)cc3)cc2[nH]1 | -2% | nt | nt | nt
COc1ccc(S(=O)(=O)NCc2ccc(C(=O)NCc3cccnc3)cc2)cc1 | -5% | nt | nt | nt
Cc1ccc(N2C(=O)c3cccc4c(C(=O)O)ccc(c34)C2=O)cc1 | -1% | nt | nt | nt
O=C1NC(=O)C(=Cc2ccc3c(c2)OCO3)C(=O)N1 | 0% | nt | nt | nt
O=C(O)/C(=C/c1ccco1)c1ccccc1 | 0% | nt | nt | nt
CC(=O)c1ccc(-c2csc(N3CCC(C(N)=O)CC3)n2)cc1 | -5%&-5% | nt | nt | nt
O=C(Nc1ccccc1F)c1ccc(O)c2ncccc12 | 2% | nt | nt | nt
O=S(=O)(NC1CCN(S(=O)(=O)c2ccc3c(c2)OCCO3)CC1)c1c(F)cccc1F | 26% | nt | nt | nt
COc1cccc(-n2c([S-])c(C(=O)Nc3ccc(C(F)(F)F)cc3)[n+]3ccccc23)c1 | -2% | nt | nt | nt
NC(=O)c1cc([N+](=O)[O-])ccc1NCCN1C(=O)c2ccccc2C1=O | 1% | nt | nt | nt
O=c1[nH]c(=O)c2ncc(-c3ccc(Cl)cc3)nc2[nH]1 | 1% | nt | nt | nt
Cc1ccc(N=c2c([N+](=O)[O-])nn(-c3ccc4c(c3)OCCO4)n2O)c(Cl)c1 | 1% | nt | nt | nt
O=C(NC1CCS(=O)(=O)C1)c1cccnc1 (configuration not stated) | 4% | nt | nt | nt
CCOC(=O)c1c(CNCc2ccccc2F)c2sc(C)cc2n1C | 2% | nt | nt | nt
Brc1cc2c(cc1/C=N/Nc1nc(N3CCCCC3)nc(N3CCCCC3)n1)OCO2 | -3% | nt | nt | nt
Cc1nc(N)sc1C(=O)N/N=C/c1ccccc1[N+](=O)[O-] | -2% | nt | nt | nt
CCCCC(=O)Nc1cccc(C(C)O)c1 (configuration not stated) | 1% | nt | nt | nt
Cc1ccccc1NC(=O)c1nc2nccc(C)n2n1 | -1% | nt | nt | nt
COc1cccc(-c2ccc3ncnc(NCc4cccc(F)c4)c3c2)c1 | 8.9µM* | nt | nt | nt

Carrying on.
SMILES | SARS PLP yeast | Cruzain Triton | Cruzain noTriton | NS1 function inh
C#CCOCCOCCOCCNc1nc(N2CCN(C(=O)CCCCCCCCCCNC(=O)[C@H](CO)n3cc(CCCSC)nn3)CC2)nc(N2CCN(C(=O)CCCCCCCCCCNC(=O)[C@@H]([C@H](C)O)n3cc(C)nn3)CC2)n1 | -4% | nt | nt | nt
CCN(CC)CCN(C(=O)c1ccc(N2C(=O)CCC2=O)cc1)c1nc2cc3c(cc2s1)OCO3 | 2% | nt | nt | nt
O=C(Cn1c2ccc(F)cc2c2nc3n(c(=O)c21)CCS3)Nc1ccccc1F | 0% | nt | nt | nt
COC(=O)C1CCN(CC(=O)Nc2cc(Cl)ccc2OC)CC1 | -3% | nt | nt | nt
Nc1c2c(nc3c1CCC3)CCCC2 | 4% | nt | nt | nt
Cc1cccc(N2C(=O)NC(=O)/C(=C/c3ccc(-c4ccc(C(=O)O)c(Cl)c4)o3)C2=O)c1 | -2% | nt | nt | nt
CNC[C@H](Cc1cccc2ccccc12)NC[C@H](CCSC)NCC1CCC(C(C)(C)C)CC1 (some centres not stated) | 4% | nt | nt | nt
CCCN1C(=O)/C(=C/c2ccc(C)o2)NC1=S | -3% | nt | nt | nt
O=C(Cc1c[nH]c2ccccc12)Nc1cccc(S(=O)(=O)N2CCCCC2)c1 | 0% | nt | nt | nt
NC1=NC(c2cn[nH]c2-c2ccc(F)cc2)n2c(nc3ccccc32)N1 (configuration not stated) | 0% | nt | nt | nt

Part of the list above, reformatted.
> Nc1c2c(nc3c1CCC3)CCCC2
  SARS PLP yeast: 4%; Cruzain Triton: nt; Cruzain noTriton: nt; NS1 function inh: nt

> Cc1cccc(N2C(=O)NC(=O)/C(=C/c3ccc(-c4ccc(C(=O)O)c(Cl)c4)o3)C2=O)c1
  SARS PLP yeast: -2%; Cruzain Triton: nt; Cruzain noTriton: nt; NS1 function inh: nt

> CNC[C@H](Cc1cccc2ccccc12)NC[C@H](CCSC)NCC1CCC(C(C)(C)C)CC1 (some centres not stated)
  SARS PLP yeast: 4%; Cruzain Triton: nt; Cruzain noTriton: nt; NS1 function inh: nt

Whole records, quoted from the list. Order of screens: SARS PLP yeast, Cruzain Triton, Cruzain noTriton, NS1 function inh
Shown for CC(=O)/C(=C\c1ccccc1F)C(=O)c1ccccc1 = nt, -2.4%, ?, -4%
Shown for C[C@@]12CC[C@H]3[C@H](CCC4=CC(=O)CC[C@H]43)[C@H]1CC[C@H]2OC1(O)C(=O)c2ccccc2C1=O = nt, -5.0%, 1%, -3%
Shown for C[C@@H]1[C@@H](C)N1C[C@H](O)Cn1ccnc1[N+](=O)[O-] (some centres not stated) = nt, -1.1%, -1%, 3%
Shown for O=C(Nc1ccccc1F)c1ccc(O)c2ncccc12 = 2%, nt, nt, nt

Next part:
SMILES | SARS PLP yeast | Cruzain Triton | Cruzain noTriton | NS1 function inh
Cc1ccc(C(=O)COC(=O)c2cnccn2)cc1C | -6% | nt | nt | nt
COc1ccc(OC)c(N=C2SCCCN2C(=O)c2ccc(N3C(=O)CCC3=O)cc2)c1 | 2% | nt | nt | nt
COC(=O)c1c(-c2ccc(OC)cc2)sc2ccccc12 | 2% | nt | nt | nt
O=C(NCc1cc(C(F)(F)F)ccc1Cl)c1cccc2c1C(=O)c1ccc(-c3ccc(OC(F)(F)F)cc3)cc1S2(=O)=O | -5% | nt | nt | nt
CCOC(=O)C1(CC2CC2)CCN(Cc2ccc(O)c(Cl)c2)CC1 | 0% | nt | nt | nt
C=CCOc1cccc(C2C(C(=O)c3ccc(C)o3)=C(O)C(=O)N2c2nnc(C)s2)c1 (configuration not stated) | 2% | nt | nt | nt
O=c1[nH]c(O)c(C=Nc2ccccc2[N+](=O)[O-])c(=O)[nH]1 | 1% | nt | nt | nt
c1ccc2c(-c3cn4ccccc4n3)c[nH]c2c1 | -3% | nt | nt | nt
CC(=O)OC[C@]12CC[C@H]3[C@@](C)(CC[C@H]4C(C)(C)CCC[C@]34C)[C@@H]1C[C@H](C1=CC(=O)O[C@H]1OC(C)=O)O2 | -3% | nt | nt | nt
CCN1C(=O)[C@H]2[C@@H](c3ccc(-c4ccc(F)cc4)c(OC)c3)N[C@@](CC(C)C)(C(=O)OC)[C@H]2C1=O | -2% | nt | nt | nt
O=C(NCc1cccnc1)C(=O)Nc1nccs1 | 3% | nt | nt | nt
CCCC(C)NC(=O)c1ccc(-c2ccccc2)cc1 (configuration not stated) | -9% | nt | nt | nt
COc1ccc(NC(=S)N(CCO)Cc2ccccc2)cc1 | 1% | nt | nt | nt
O=C1NC(Cc2ccccc2)c2nc3ccc(Br)cc3c(=O)n2-c2cc(Cl)ccc21 (configuration not stated) | -4% | nt | nt | nt
C[C@H]1O[C@H](O[C@H]2[C@H](O)[C@@H](O)[C@@H](O[C@H]3[C@H](O)[C@@H](O)C(O)O[C@@H]3CO)O[C@@H]2CO)[C@H](O)[C@@H](O)[C@@H]1N[C@H]1C=C(CO)[C@@H](O)[C@H](O)[C@H]1O (some centres not stated) | 7% | nt | nt | nt
COc1cc(C(=O)NS(=O)(=O)c2ccccc2C)ccc1Cc1cn(C)c2ccc(NC(=O)OC3CCCC3)cc12 | 0% | nt | nt | nt
O=C(NC1CC1)c1ccc2c(c1)S(=O)(=O)c1cc(Cl)ccc1C2=O | -6% | nt | nt | nt
Clc1cccc(-c2ccc3ncnc(NCc4ccc5c(c4)OCO5)c3c2)c1 | -4% | nt | nt | nt
O=C(O)c1ccc(S(=O)(=O)N[C@H](Cc2ccc(O)cc2)C(=O)O)cc1 | 4% | nt | nt | nt
COc1ccc(-c2nnc3ccc(SCC(=O)Nc4cc(C)on4)nn23)cc1 | 1% | nt | nt | nt
O=C(CN1C(=O)NC2NC(=O)NC21)N/N=C/c1ccccc1F (configuration not stated) | -2% | nt | nt | nt
COc1ccc2c(COC(=O)CCS(=O)(=O)c3ccccc3)cc(=O)oc2c1 | 0% | nt | nt | nt
O=C(O)c1ccc2c(c1)C(=O)N([C@H](Cc1c[nH]c3ccccc13)C(=O)O)C2=O | 1% | nt | nt | nt
